Screening data deposited in PubChem BioAssay by Southern Research Institute.
motility = Vibrio cholerae motility inhibitors, OD read-out (AID 588778) | Vibrio cholerae motility, OD read-out; higher % means a stronger effect; test concentration not given here; primary cut-off and reference of the scale not given here; strong numbers were not always called active | inhibition, %, or IC50 in µg/mL where a hit was titrated | 10,000 tested, under 10 active; in the data active means confirmed in a dose series
motility viability = second read-out of motility, no call of its own (marks repeat the call); inhibition, %; measured here: bacterial viability at 10 ug/mL;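 higher means fewer living bacteria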
Starred values were filed as active, the others as inactive. Some of the compounds tested; rates above refer to the full screens.

SMILES	motility	motility viability
Cc1ccc(NC(=O)c2ccccc2NC(=O)Cc2ccc(Cl)cc2)cc1C	11%	19
COC(=O)c1cccc(OCC(O)Cn2ccnc2)c1 (centres undefined)	19%	33
N#CC1=C(N)N2C(=C(C#N)C1c1cccs1)Sc1ccccc12 (centres undefined)	-5%	-8
CCOC(=O)Nc1ccc2c(c1)OCCO2	-4%	-3
O=C(c1cccs1)N1CCN(c2cc(N3CCCC3)c(F)cc2[N+](=O)[O-])CC1	-4%	-4
Cc1ccc(SC(C)C(=O)N2CCN(c3ccccc3)CC2)cc1 (centres undefined)	4%	-1
CCOC(=O)N1CCN(C(=O)c2cc(I)ccc2NC(=O)c2cccnc2)CC1	-2%	-2
Cc1oc(C)c(C(=O)Nc2ccc(CC(=O)O)cc2)c1C(=O)Nc1ccc(CC(=O)O)cc1	4%	0
O=C(O)c1cc([N+](=O)[O-])ccc1NC1CCCCC1	15%	2
Brc1ccccc1CN1CCN(Cc2ccco2)CC1	6%	-1
CC1CCN(S(=O)(=O)c2cccc(C(=O)NNC(=O)c3ccc(Br)cc3)c2)CC1	25%	7
O=C(CSc1ccc2ccccc2n1)N1CCN(c2nnnn2-c2ccccc2)CC1	-4%	0
Cc1cc(C(C)c2ccccc2)c(O)c(CN2CCOCC2)c1C (centres undefined)	0%	-4
COc1ccc(C)cc1NC(=O)NNC(=O)c1ccoc1C	3%	-3
COc1cc(C)c(Br)cc1S(=O)(=O)NCc1ccco1	18%	2
Cc1ccc(NC(=O)CCCn2cc([N+](=O)[O-])cn2)cc1C	20%	9
COc1ccc2nc(NC(=O)C(Sc3ccccc3)c3ccccc3)sc2c1 (centres undefined)	-37%	-17
Cc1ccccc1NC(=O)c1c(-c2ccc(F)cc2)sc2nc(N)ccc12	-5%	-7
O=[N+]([O-])c1ccc(NC(=S)Nc2ccc3c(c2)oc2ccccc23)cc1	7%	3
CC(C)C(C(=O)Nc1ccc(S(=O)(=O)Nc2nccs2)cc1)N1C(=O)c2ccccc2C1=O (centres undefined)	6%	-2
CCOC(=O)C1=C(c2ccccc2)NC(=S)NC1c1cc([N+](=O)[O-])ccc1OC (centres undefined)	-18%	2
CC(C)COc1ccc(C(=S)N2CCCC2)c2ccccc12	1%	-2
N#Cc1c(SCC(=O)NC23CC4CC(CC(C4)C2)C3)nsc1SCC(=O)NC12CC3CC(CC(C3)C1)C2	6%	3
COC(=O)c1cc(Cl)c(C(=O)OC)cc1Cl	4%	-4
COc1cc(NC(=O)CSC2=C(C#N)C(c3cccc(Cl)c3Cl)C3=C(CCCC3=O)N2)c(OC)cc1Cl (centres undefined)	-4%	-5

(more compounds)
SMILES	motility	motility viability
N#Cc1ccc(-n2cnc3ccccc3c2=O)cc1C#N	-8%	-4
COC(=O)CCS(=O)(=O)c1cc(Cl)ccc1Cl	18%	2
CC(COCC(O)CN1CCN(C)CC1)c1ccccc1 (centres undefined)	13%	2
CCN(CC)c1cccc(Oc2nc([N+](=O)[O-])nn2C)c1	-1%	-4
C=CCc1cc(C(=O)N2CCOCC2)ccc1O	8%	-5
COc1c(F)c(F)c(C(=O)Nc2cc(C(F)(F)F)ccc2N2CCOCC2)c(F)c1F	0%	0
Cc1cc(NC(=O)c2sc3cc(F)ccc3c2Cl)no1	12%	0
OCCN1CCN(Cc2ccc(F)c(Br)c2)CC1	161%	44
O=C(Oc1ccc2cc(-c3nc4ccccc4s3)c(=O)oc2c1)c1ccc(F)cc1	-19%	-7
C#CCN(C#N)c1nc(NCC)nc(NC(C)C)n1	12%	27
COC(=O)c1cc(-c2cccs2)on1	-3%	-3
O=C(Cc1cccc2ccccc12)Nc1ccc([N+](=O)[O-])cc1O	69%	9
COc1c(C(=O)Nc2ccncc2)ccc2ccccc12	0%	6
O=C(Oc1ccc(Cl)cc1)c1ccc2nc(N3C(=O)c4ccccc4C3=O)sc2c1	-12%	-7
COc1ccc(S(=O)(=O)N2CCOCC2)cc1C(=O)NCCN1CCOCC1	-5%	-7
CC(NC(=S)NC(=O)c1ccc(-c2ccccc2)cc1)c1ccccc1 (centres undefined)	-19%	-7
C=CCNC(=O)c1ccccc1NS(=O)(=O)c1c(C)cc(C)cc1C	9%	4
CN(C)c1ccc(NC(=O)c2ccc3c4c(cccc24)CC3)cc1	-3%	-3
O=S(=O)(O)c1nnc2n(Cc3ccccc3)c3ccccc3n12	-14%	-5
O=C(CS(=O)(=O)c1ccccc1)c1ccc2c(c1)OCCO2	10%	6
Cc1ccc(-c2csc(N3C(=O)CN=C3SCc3ccc(Cl)cc3)n2)cc1	8%	0
Cc1ccc(OC(C)C(=O)Oc2ccc(Br)cc2)cc1C (centres undefined)	-2%	-4
COc1ccc(CCn2c(C)c3c(C)nnc(C)c3c2C)cc1OC	-1%	-1
O=C(NC(=S)Nc1ccc2c(c1)Cc1ccccc1-2)c1ccc(Br)cc1	7%	-2
O=C(O)c1ccc(C2CC2(Cl)Cl)cc1 (centres undefined)	6%	5

2 entries picked at random from the list so far:
SMILES	motility	motility viability
O=C(O)c1ccc(C2CC2(Cl)Cl)cc1 (centres undefined)	6%	5
Cc1ccc(-c2csc(N3C(=O)CN=C3SCc3ccc(Cl)cc3)n2)cc1	8%	0

Full records, looked up by structure. Order of screens: motility	motility viability
`COc1cc(C)c(Br)cc1S(=O)(=O)NCc1ccco1` as listed: 18%	2
`COC(=O)CCS(=O)(=O)c1cc(Cl)ccc1Cl` as listed: 18%	2
`N#Cc1ccc(-n2cnc3ccccc3c2=O)cc1C#N` as listed: -8%	-4
`CC(COCC(O)CN1CCN(C)CC1)c1ccccc1` (centres undefined) as listed: 13%	2
`C=CCc1cc(C(=O)N2CCOCC2)ccc1O` as listed: 8%	-5

(further entries)
SMILES	motility	motility viability
CC(C)(C)c1ccc(C(=O)N2CCN(c3ccc([N+](=O)[O-])cc3C(F)(F)F)CC2)cc1	0%	2
COc1ccc(-c2oc3ccccc3c(=O)c2OC(=O)CCc2ccccc2)cc1OC	17%	7
O=C(NCCCN1CCN(c2ccc(F)cc2)CC1)NC12CC3CC(CC(C3)C1)C2	18%	-1
O=C(CNC(=O)c1ccccc1)OC(c1ccccc1)c1ccccc1	8%	1
COc1ccc(C(=O)CSc2nc(N)cc(=O)[nH]2)cc1OC	-20%	-3
CC(=O)Nc1ccc(C(=O)n2cnc3cc(C)c(C)cc32)cc1	2%	-5
O=C(CCn1c(=O)oc2ccccc21)Nc1nnc(SCc2ccccc2Cl)s1	3%	-1
N/C(=N\OC(=O)Cc1cccs1)c1cccc([N+](=O)[O-])c1	23%	1
COC(=O)Nc1scc(-c2ccc(Cl)c(Cl)c2)c1C#N	-19%	-6
N#C/C(=C\c1cc(Br)ccc1F)c1nc2ccccc2[nH]1	-4%	2
CN(C)Cc1ccc(O)cc1	9%	-1
CN(C(=O)c1ccccc1NC(=O)C(F)(F)F)c1ccccc1	8%	1
Cc1ccc(NC(=O)C2CCCN2C(=O)OC(C)(C)C)cc1C (centres undefined)	-16%	-3
Cc1cc(C)n(-c2nc3c(c(C(F)(F)F)n2)CC(C)CC3)n1 (centres undefined)	-11%	5
N#Cc1ccccc1NS(=O)(=O)c1ccc(Oc2ccccc2)cc1	-6%	-5
NS(=O)(=O)c1ccc(NC(=O)CSc2nnc(-c3ccccc3)c(-c3ccccc3)n2)cc1	-10%	-6
CN1CCN(Cc2ccccc2OC(=O)N(C)C)CC1	-12%	2
COc1ccc(NC(=O)CSc2nc(Cc3ccccc3)cc(C(F)(F)F)c2C#N)c(OC)c1	24%	-4
COc1ccc(NC(=O)c2ccccc2-c2ccccc2)cc1Cl	7%	3
Cc1cc(C(=O)Nc2ccc(Cl)cc2C(F)(F)F)cs1	-33%	-7
c1ccc2[nH]c(SCc3cscn3)nc2c1	18%	22
O=C(c1ccccc1)C1C2C=CC(C2)C1C(=O)c1ccccc1 (centres undefined)	1%	0
Cc1ccc(-c2noc(CSc3nnnn3-c3ccccc3)n2)cc1	10%	25
Cn1nnc2cc(NC(=O)N3CCC(c4ccccc4)C3)ccc21 (centres undefined)	5%	-3
COc1cc(NC(=S)NC(=O)COc2cccc(C)c2C)ccc1NC(=O)C(C)C	-10%	-4

(listing goes on)
SMILES	motility	motility viability
O=S(=O)(NCCSc1nnnn1-c1ccccc1)c1cccs1	15%	2
S=C(Nc1ccccc1)NC1C2CN3CCN(C2)CC1(c1ccccc1)C3 (centres undefined)	-2%	-1
O=C(NN1CCOCC1)c1cc(-c2cccnc2)nc2ccc(Br)cc12	7%	4
CCOCCCNC(=O)c1cccc([N+](=O)[O-])c1C	5%	-5
CN(C(=O)COc1ccc(C(C)(C)C)cc1)C1(C)CCS(=O)(=O)C1 (centres undefined)	-10%	-5
Cc1nc(Nc2nc3ccccc3s2)nc(-c2ccccc2)c1C#N	-2%	-1
O=C(COc1ccc(Br)cc1)N1CCC(c2ccccc2)C1 (centres undefined)	15%	9
c1ccc(OCc2nc(-c3cccs3)no2)cc1	19%	0
Cc1cc(C)nc(-n2ncc(C(=S)Nc3ccccc3)c2C)n1	14%	27
Cc1ccccc1NC(=O)CC1c2ccccc2CC(C)(C)N1C (centres undefined)	90%	18
COc1cc(C(=O)NC(C)(C)Cc2ccc(Cl)cc2)cc(OC)c1OC	3%	-1
O=C(COc1ccc(S(=O)(=O)NCc2ccccc2)cc1Cl)NCc1ccco1	19%	3
O=C(NCc1ccco1)C1CCN(C(=O)c2ccc(-c3ccccc3)cc2)CC1	-2%	2
O=C(Nc1nc2ccc(F)cc2s1)c1cccs1	0%	-7
CN(C)S(=O)(=O)N1CCN(S(=O)(=O)N(C)C)CC1	17%	17
Cc1cc(C)nc(NC2=NC3CCCCC3N2)n1 (centres undefined)	3%	0
CCOC(=O)c1ccc(NC(=O)CN(c2cc(OC)ccc2OC)S(=O)(=O)c2ccc(OC)c(OC)c2)cc1	-7%	-3
CCCCOC(=O)Nc1ccc(I)cc1C	-8%	-1
CCOC(=O)Cc1ccc(NC(=O)c2ccccc2Br)cc1	8%	1
COC(C(=O)Nc1ccc(F)c(F)c1)c1ccccc1 (centres undefined)	26%	6
CCCN(CC1CC1)C(=S)Nc1ccc(C(C)=O)cc1	-3%	-6
CCOC(=O)c1sc(NC(=O)CSc2nnc(-c3sc4ccccc4c3Cl)o2)nc1C	-11%	0
COCC(=O)NNC(=O)c1ccccc1C	-8%	5
COc1cc(OC)c(NC(=O)Cc2cccs2)cc1Cl	6%	0
COc1ccc(C)cc1NS(=O)(=O)CC(C)C	-6%	-6

7 entries from above, with values under each structure.
Values in the order: motility	motility viability
- N#Cc1ccc(-n2cnc3ccccc3c2=O)cc1C#N
→ -8%	-4
- Cc1ccc(NC(=O)CCCn2cc([N+](=O)[O-])cn2)cc1C
→ 20%	9
- Cc1cc(C(C)c2ccccc2)c(O)c(CN2CCOCC2)c1C (centres undefined)
→ 0%	-4
- Cc1ccc(OC(C)C(=O)Oc2ccc(Br)cc2)cc1C (centres undefined)
→ -2%	-4
- Cc1nc(Nc2nc3ccccc3s2)nc(-c2ccccc2)c1C#N
→ -2%	-1
- CCN(CC)c1cccc(Oc2nc([N+](=O)[O-])nn2C)c1
→ -1%	-4
- CN(C)S(=O)(=O)N1CCN(S(=O)(=O)N(C)C)CC1
→ 17%	17

Next section:
SMILES	motility	motility viability
O=[N+]([O-])c1ccc(CSC2=NCCN2)cc1	9%	0
Cc1ccc(S(=O)(=O)C(F)(F)F)cc1NC(=O)c1cccnc1	-10%	-5
CC(=O)c1cccc(NC(=O)N2CCN(c3ccccn3)CC2)c1	2%	4
CC1=Nc2ccccc2N=C(N)C1c1ccc(Cl)cc1 (centres undefined)	23%	3
N#Cc1cccc2c1-c1ccccc1C2=O	6%	1
Cc1ccc([N+](=O)[O-])cc1S(=O)(=O)NCc1ccc2c(c1)OCO2	8%	1
COc1ccccc1OCC(=O)Nc1c[nH]c(=O)[nH]c1=O	5%	-1
COc1cc(OC)cc(C(=O)N/C(=N/c2nc(C)cc(C)n2)Nc2ccc(F)c(Cl)c2)c1	1%	-1
O=C(OCc1nnc(-c2ccccc2)o1)c1cnccn1	11%	-2
CCOc1cc2nccnc2cc1OCC	16%	11
CCOC(=O)c1cnn(-c2nc3ccccc3s2)c1-c1cc(F)c(F)c(F)c1F	17%	0
COc1ccc(S(=O)(=O)Nc2c(C)cccc2C(C)C)cc1Br	4%	-3
COC(=O)c1ccc(Cn2nc(C(F)(F)F)cc2C)cc1	0%	-2
O=C(CCCc1c(-c2ccccn2)[nH]c2ccc(F)cc12)Nc1nccs1	-12%	-6
Cc1cccc(C)c1OCC(=O)NNC(=O)c1ccoc1C	-1%	-4
COc1ccc(-c2cc(C(F)(F)F)nc(SCC(=O)Nc3cccc(C)n3)n2)cc1OC	-2%	-2
O=C(CN1CCc2ccccc2C1)n1c2c(c3ccccc31)CCCC2	10%	2
C=CCN(C(=O)CSc1nnc(-c2ccc(C)cc2)o1)c1nnc(-c2ccccc2)s1	-2%	-3
C1CCC(CN2CCNCC2)C1	-7%	6
O=C(Nc1cccc([N+](=O)[O-])c1)c1ccc2snnc2c1	5%	-7
COc1ccc(-n2c(Cc3ccccc3)nnc2SCc2ccc([N+](=O)[O-])cc2)cc1	18%	6
C#CCOc1c(Cl)cc(/C=C/[N+](=O)[O-])cc1OC	10%	-1
C=C(Br)Cn1c(SCC)nc2ccccc21	5%	3
O=C(Nc1ccccc1C(=O)N1CCOCC1)Oc1ccccc1	8%	18
O=C(N1CCOCC1)N1c2ccccc2CC(N2CCOCC2)c2ccccc21 (centres undefined)	8%	-4
O=C(Oc1ccc(Cl)c2cccnc12)c1ccccc1Br	76%	25
CCn1nnnc1NCc1ccc(N2CCCC2)cc1	-4%	-3
CN(C)c1ccc(NC(=O)Nc2ccc(Cl)cc2Cl)cc1	-20%	3
CCC(Sc1nnnn1-c1ccccc1)C(=O)Nc1ccc(Br)cc1 (centres undefined)	-7%	-7
COC(=O)Cc1ccc(NC(=S)N2CCN(c3cc(Cl)ccc3C)CC2)cc1	-4%	-3
